Screening results (PubChem BioAssay)
HIV Env fusion – inhibitors of HIV Env-mediated cell fusion | HeLa-JRFL Env/CEM21 cell fusion, luciferase | 360,000 tested, 1.1% active | AID 651610 | inhibition, % at 12.3 µM;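 active = mean replicate inhibition score of at least 50 and every replicate individually at or above 50; inconclusive = only one of the two criteria met; inactive = mean below 50 and not all replicates reaching 50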;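 also: 0% = plate neutral controls and 100% = maraviroc near 300 nM; one replicate is shown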
UUG fidelity – alters start codon recognition fidelity in yeast | S. cerevisiae UUG-firefly luciferase reporter, luminescence/redox ratio | activity score, % at 18.7 µM | 350,000 tested, 0.13% active | AID 602363;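 active = replicate mean at a twofold rise or more, about +100% in these data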;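 also: firefly luciferase made from a UUG start codon reports start codon fidelity; reporter light over untreated wells divided by growth signal over untreated wells; some hits fall short of that in this replicate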
CSC inhib – blocks cancer stem cells; AID 2717; 300,000 tested, 1.1% active; inhibition, % at 7.5 µM; cancer stem cell-like cells viability, luminescence;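 active = mean at 75% or more and at least half the replicates too; inconclusive = mean and replicates disagree; tested in HMLE shEcad cells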;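 also: 0% = median of negative and 100% = median of positive control wells; the first replicate is given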
PABP polyA inh – blocks human PABP binding to poly(A) RNA | P11940 | fluorescence polarization | inhibition, % at 35 µM | 290,000 tested, 1% active | AID 2014;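 active = 50% or more with normal probe brightness, or confirmed in later tests; inconclusive = above 50% with abnormal brightness, or retests that disagree; inactive = below 50% or failed in later tests; about a fifth of its hits are not listed in these tables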;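 also: calls also rest on retests at 20 µM and on dose response follow-up; controls were probe without protein and protein plus probe with vehicle; some compounds called inactive have numbers as strong as hits; many hits fall short of the cut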
Target sequence (P11940 whole entry, looked up): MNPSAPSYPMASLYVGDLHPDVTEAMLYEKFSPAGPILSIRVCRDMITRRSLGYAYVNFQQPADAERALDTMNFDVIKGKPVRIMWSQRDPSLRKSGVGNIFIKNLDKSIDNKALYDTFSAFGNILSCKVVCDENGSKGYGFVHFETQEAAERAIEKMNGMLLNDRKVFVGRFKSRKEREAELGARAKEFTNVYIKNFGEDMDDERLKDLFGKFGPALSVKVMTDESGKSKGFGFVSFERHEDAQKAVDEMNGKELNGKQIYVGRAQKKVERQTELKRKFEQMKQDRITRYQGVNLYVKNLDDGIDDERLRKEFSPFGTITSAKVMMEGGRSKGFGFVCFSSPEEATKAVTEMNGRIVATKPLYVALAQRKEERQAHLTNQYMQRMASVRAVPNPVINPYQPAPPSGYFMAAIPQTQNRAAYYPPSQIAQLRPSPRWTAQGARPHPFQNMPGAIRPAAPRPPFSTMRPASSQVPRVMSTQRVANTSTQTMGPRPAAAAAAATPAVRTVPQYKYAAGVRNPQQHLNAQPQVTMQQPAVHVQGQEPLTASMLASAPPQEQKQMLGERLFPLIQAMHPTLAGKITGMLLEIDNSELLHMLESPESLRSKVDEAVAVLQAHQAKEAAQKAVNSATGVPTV
eIF4H inh – inhibitors of RNA binding by human eIF4H | Q15056 | eIF4H fluorescence polarization binding assay | inhibition, % at 35 µM | 290,000 tested, 0.94% active;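 active = 50% or more with normal probe brightness, or confirmed in later tests; inconclusive = above 50% with abnormal brightness, or retests that disagree; inactive = below 50% or failed in later tests; about a fifth of its hits are not listed in these tables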;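 also: calls also rest on retests at 20 µM and on dose response follow-up; 0% = protein and probe with vehicle and 100% = probe without protein; strong numbers were not always called active; many hits fall short of the cut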
Rce1 inhib – blocks yeast Ras-converting enzyme; Q03530; yeast membranes, quenched prenylated peptide cleavage fluorescence; calls only; 290,000 tested, 0.27% active; AID 2563;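 active = fall in fluorescence gain of 50% or more versus controls, with final raw signal at or below 3038400; inconclusive = same 50% fall but final raw signal above 3038400; inactive = fall in fluorescence gain under 50%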;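 also: plate controls were neutral control wells for no effect and wells lacking membranes for full effect; tested at 10 µM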
Target sequence (Q03530 whole entry, looked up): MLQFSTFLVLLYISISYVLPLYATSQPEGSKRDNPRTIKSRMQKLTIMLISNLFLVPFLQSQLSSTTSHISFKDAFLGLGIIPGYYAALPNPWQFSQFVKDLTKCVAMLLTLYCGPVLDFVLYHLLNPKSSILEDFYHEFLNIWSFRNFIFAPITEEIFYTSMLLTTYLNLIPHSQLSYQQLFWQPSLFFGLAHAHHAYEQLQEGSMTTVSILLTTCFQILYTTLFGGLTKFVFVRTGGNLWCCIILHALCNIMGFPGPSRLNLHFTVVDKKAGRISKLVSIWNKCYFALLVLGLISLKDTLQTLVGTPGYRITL
MT1-MMP act inh – inhibitors of human MT1-MMP activation | 360,000 tested, 0.061% active | HT1080 RFP-PRO-GFP cells, GFP/RFP ratio fluorescence, overnight; percent of plate control window, DMSO zero | GFP/RFP ratio change, % at 20 µM | AID 651647;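 active = GFP/RFP ratio change of at least 30% with cell ATP level not reduced by more than half and red fluorescence within 50% of control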; also: strong numbers were not always called active
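Material – HT1080 RFP-PRO-GFP cells · Control set – DMSO wells and RFP-L50D-GFP cells · Incubation – overnight cell settling, then overnight compound exposure, 37 °C, 5% CO2 · Compound dosing – single-point 20 µM compound, 1% DMSO · Read-out – GFP/RFP fluorescence ratio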
eIF4H inh retest – recorded beside eIF4H inh, whose call it bears; inhibition, %; compound at 20 µM; confirmation average;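 mean of two retest wells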
PABP polyA inh retest – second read-out of PABP polyA inh, no call of its own (marks repeat the call); inhibition, %; compound at 20 µM; confirmation repeats;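 mean of two retest wells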
MT1-MMP act inh RFP – recorded beside MT1-MMP act inh, whose call it bears; RFP signal change, %; measured here: RFP expression control read;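 0 = vehicle wells; hits needed this value within 50% of zero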
* marks the source's active call; other numbers are inactive results; i = inactive; ? = inconclusive; . = not tested or not shown. Only part of the results is shown; rates above refer to the full screens.

Sample of the layout:
SMILES	HIV Env fusion	UUG fidelity	CSC inhib	PABP polyA inh	eIF4H inh	Rce1 inhib	MT1-MMP act inh	MT1-MMP act inh RFP	others
Cc1nn(-c2ccccc2)c(C)c1S(=O)(=O)O	0	.	-9	-5	16	i	-1	3
Cc1cccc(NC(=O)CN2C(=O)COc3ccc(Cl)cc32)c1C	-10	-8	-13	-5	-6	i	4	0

This part in full, previewed entries included:
SMILES	HIV Env fusion	UUG fidelity	CSC inhib	PABP polyA inh	eIF4H inh	Rce1 inhib	MT1-MMP act inh	MT1-MMP act inh RFP	others
Cc1nn(-c2ccccc2)c(C)c1S(=O)(=O)O	0	.	-9	-5	16	i	-1	3
Cc1cccc(NC(=O)CN2C(=O)COc3ccc(Cl)cc32)c1C	-10	-8	-13	-5	-6	i	4	0
CC1CCCC(NC(=O)c2cc(S(=O)(=O)N3CCOCC3)ccc2F)C1C (stereo not drawn)	-3	.	7	-6	-4	i	4	3
Cc1cc(=O)[nH]c2c(C)cc(S(=O)(=O)N3CCOCC3)cc12	-7	-9	-13	-2	-1	i	-3	6
Cc1ccc(NC(=O)C2CCN(S(=O)(=O)c3cccs3)CC2)cc1C	.	.	-7	-7	-6	i	0	-8
COc1ccccc1-c1cc(NC(C)=O)c2ncc(-c3cccc(C(C)=O)c3)n2c1	-37	-1	.	.	.	.	-3	-1
CC(C)CC(OC(=O)CC1Sc2ccccc2NC1=O)C(=O)NC1CCCC1 (stereo not drawn)	3	13	12	3	-1	i	0	0
COCCCNC(CC(=O)Nc1ccc(OC)cc1OC)C(=O)O (stereo not drawn)	-14	-7	-16	4	-8	i	-2	-1
O=C(O)c1ccccc1N1C(=O)C2C3c4ccccc4C(Br)(c4ccccc43)C2C1=O (stereo not drawn)	-8	.	.	0	0	i	-5	4
O=C(c1ccsc1)N1CCCC(N2CCN(c3ccccc3F)CC2)C1 (stereo not drawn)	-6	9	10	8	-18	i	2	1
COc1ccc(C)cc1S(=O)(=O)Nc1cccnc1	-37	1	-16	-7	-6	i	-1	7
CCOC(=O)CSc1nc(C2CC2)cc(-c2ccc(Cl)cc2)c1C#N	-10	-8	22	-2	-8	i	-1	-4
C=CCn1c(O)c(N=NC(=S)Nc2ccc(OC)c(Cl)c2)c2ccccc21	.	-37	44	0	23	i	6	1
COc1cc(OC)cc(-c2nnc(Sc3ccc(C=O)cc3[N+](=O)[O-])o2)c1	.	.	-1	12	-2	i	.	.
CCOc1ccc(C(NC(=O)/C=C/c2ccco2)c2ccc(OC)c(OC)c2)cc1 (stereo not drawn)	37	-9	-5	3	14	i	1	-1
O=C(COC(=O)c1ccccc1C(=O)OCC(=O)NCCc1c[nH]c2ccccc12)NCCc1c[nH]c2ccccc12	-39	-14	-1	.	.	i	-1	1
CCC(CO)NCc1ccc(OC2CCCC2)cc1 (stereo not drawn)	-116	-15	6	13	2	i	-5	4
O=C(Cc1ccccn1)c1ccc(Cl)cc1	-35	-6	-1	.	.	i	-5	6
O=C(O)c1ccc(-n2c(/C=C/c3cccc([N+](=O)[O-])c3)nc3ccccc3c2=O)cc1	1	-20	15	10	0	i	3	-6
Cc1ncn2cc(-c3ccc(Cl)cc3Cl)[nH]c(=O)c12	33	-11	-6	-2	2	i	-11	-12
COc1cc(OC)c(OC)cc1/C=C1\CCC(C2CCCC2)C1=O (stereo not drawn)	7	-6	-2	-13	-5	i	2	-2
CCN(CC(=O)Nc1ccc(S(=O)(=O)N2CCCCC2)cc1)Cc1ccccc1	-52	-7	5	.	.	i	2	-8
O=C(c1ccc(CS(=O)(=O)c2ccc(Br)cc2)o1)N1CCN(C2CCCCC2)CC1	?	-16	-11	20	3	i	-1	1
Cc1ccc(CNC(=O)C2CCCCC2C(=O)O)cc1 (stereo not drawn)	-16	-5	-4	-5	-1	i	-3	3
CCc1ccc(S(=O)(=O)/N=C2/C=C(Sc3ncn[nH]3)C(=O)c3ccccc32)cc1	.	.	104*	3	-3	.	-66	1
Carrying on:
SMILES	HIV Env fusion	UUG fidelity	CSC inhib	PABP polyA inh	eIF4H inh	Rce1 inhib	MT1-MMP act inh	MT1-MMP act inh RFP	others
CNC(=S)NN(C)c1nc(C)cc(C)n1	.	.	-8	32	6	i	2	4
COc1ccc(CCC(C)Nc2cccc(F)c2)cc1 (stereo not drawn)	5	24	3	12	-3	i	0	-4
Cc1cc(N/C(=N/S(=O)(=O)c2ccc(F)cc2)c2ccccc2)n(-c2ccccc2)n1	22	.	44	?	-3	i	-7	-4
O=C(O)c1cc(-c2ccccc2Cl)n[nH]1	.	-14	6	1	-6	i	4	8
CCc1ccc([C@H]2[C@@H]3C(=O)C[C@@H]4C(=O)N(Cc5ccccc5)C(=O)[C@@H]4[C@@H]3CN2S(=O)(=O)c2ccc(C)cc2)cc1	71*	-15	.	.	.	.	-1	-5
Cc1ccc(S(=O)(=O)N2CCN(C(=O)CN3CCCC3)C2)cc1	.	.	-8	17	8	i	1	5
O=C(O)C1Cc2ccccc2CN1S(=O)(=O)c1ccccc1 (stereo not drawn)	-8	-8	-12	12	20	i	-3	-3
O=C(CSCc1cccc(Br)c1)N/N=C/c1ccc2c(c1)OCO2	-1	-5	100*	-6	3	i	3	4
COC(OC)c1ccnc(-c2ccc(OC(=O)c3ccccc3)cc2)n1	0	.	-22	24	4	i	1	-2
COc1ccc(-n2c(NCCN(C)C)nc3sc4c(c3c2=O)CCCCC4)cc1	.	8	-6	-17	-4	i	4	3
OC1(c2ccc3ccccc3c2)CCN(Cc2ccccc2)C1 (stereo not drawn)	.	5	-19	12	-1	i	11	2
Cc1ccc(CNS(=O)(=O)c2c(C)[nH]c(=O)[nH]c2=O)cc1	0	10	-9	1	-6	i	1	5
O=C(CSc1nc2ccccc2c(=O)[nH]1)N1CCN(S(=O)(=O)c2ccccc2)CC1	.	-7	-7	-12	-5	i	7	0
COc1cc(CC(=O)OCC(=O)NC2CCCCC2C)cc(OC)c1OC (stereo not drawn)	-4	-20	.	.	.	.	0	2
Cn1cc(C(=O)N/N=C/c2c(O)ccc3ccccc23)ccc1=O	5	.	94*	-10	1	i	-8	-1
COc1ccccc1CN1[C@@H](CC(=O)O)c2cc(F)ccc2S1(=O)=O	-9	15	4	.	.	i	0	2
Nc1nc(NC(=O)c2ccc(Cl)cc2)nn1-c1ccccc1	-5	.	12	2	1	i	0	3
Cc1ccc(C(=O)NC(=S)NCc2cccnc2)cc1C	16	.	-12	-2	-1	i	.	.
Nc1cccc2c(=O)c3ccccc3[nH]c12	15	6	9	92*	92*	i	4	1
O=C(c1ccc2c(c1)OCCO2)C1CCN(S(=O)(=O)c2ccc(F)cc2)CC1	2	-9	-8	-2	-13	i	-3	-7
COc1ccc2nc(NC(=O)C3CCCN(S(=O)(=O)c4cccc5nonc45)C3)sc2c1 (stereo not drawn)	.	-13	-7	3	-3	i	-12	-8
O=C(NCCN1CCCC1)c1ccc2c(c1)N(Cc1ccc(F)cc1)C(=O)c1ccccc1S2=O (stereo not drawn)	-86	-10	-12	-9	4	i	-6	3
Cc1ccc(NC(=O)COC(=O)C2CC(=O)N(Cc3ccccc3)C2)cc1F (stereo not drawn)	-1	.	5	6	-7	i	0	2
CCC(C)(C)n1nnnc1C(c1ccc(C)cc1)N(Cc1ccco1)Cc1cccs1 (stereo not drawn)	135*	-7	33	0	1	i	-21	-16
C=C(C)c1cccc(C(C)(C)NC(=O)N2CCOCC2)c1	.	13	-17	6	-2	i	6	2
Next part:
SMILES	HIV Env fusion	UUG fidelity	CSC inhib	PABP polyA inh	eIF4H inh	Rce1 inhib	MT1-MMP act inh	MT1-MMP act inh RFP	others
CCc1nnc(N/N=C/c2ccccc2Cl)n1N	.	-17	3	-1	-5	i	4	7
CC(/C=N/NC(=O)c1ccncc1)=C\c1ccccc1	.	-19	6	-10	10	i	4	-4
Cc1ccc(NC(=O)CN2CCN(C(=O)c3ccco3)CC2)cc1	-12	-7	.	-3	0	i	3	2
COc1ccc(-c2cc(NC(C)=O)c3ncc(-c4ccccc4)n3c2)cc1OC	-7	4	.	.	.	.	-1	1
O=C(CNC(=O)c1ccccc1F)N/N=C/c1cc(Br)ccc1OC(=O)/C=C/c1ccco1	21	.	69	-6	84*	i	-6	-8	eIF4H inh retest=64*;PABP polyA inh retest=26
Cc1noc(C)c1-c1ccc(C(=O)NCc2ccco2)c2occc12	-34	3	.	.	.	.	5	7
Cc1cc(-c2nnc(CCC(=O)N(C)Cc3cccc4ccccc34)o2)no1	-6	-28	2	-2	2	i	-7	-2
O=C(O)c1cc([N+](=O)[O-])c(N2CCCC2)c([N+](=O)[O-])c1	-11	6	.	0	-4	i	-2	0
CC1(C)Cc2c(sc(N)c2C#N)C(C)(C)N1	1	.	-5	28	28	i	-2	6
O=S(=O)(Nc1nc2ccccc2nc1-[n+]1cccc(N=C([O-])c2ccc(Cl)cc2)c1)c1ccccc1	-34	.	-6	24	21	i	.	.
O=C1NC(Cc2c[nH]c3ccccc23)C(=O)N1CCOc1ccccc1 (stereo not drawn)	-25	.	11	7	-3	i	5	7
Nc1nnc(-c2ccc(Cl)cc2)s1	-101	-4	.	-5	-4	i	-2	-1
CCOC(=O)C1(C)CCN1C(=O)c1cncc(Br)c1 (stereo not drawn)	-6	-14	.	.	.	.	-3	-3
COc1ccccc1Nc1nc(-c2ccc3c(c2)NC(=O)CO3)cs1	-25	-24	66	-2	-5	i	5	1
C1CNC(C23CC4CC(CC(C4)C2)C3)=N1	2	-15	-17	?	-3	i	-5	-3
O=C(CSc1ccncc1)Nc1ccc(S(=O)(=O)Nc2nccs2)cc1	13	.	3	10	52	i	-1	8	eIF4H inh retest=-3;PABP polyA inh retest=4
O=C(CCNC(=O)c1ccc(Cl)cc1)Nc1c(F)c(F)cc(F)c1F	5	.	1	-13	9	i	0	0
CCC(C(=O)N1CCN(C(=O)c2ccco2)CC1)n1sc2ccccc2c1=O (stereo not drawn)	17	-8	1	-10	-8	i	3	3
O=C(N/N=C/c1cccs1)C(=O)N1CCCC1	-23	.	-2	-8	3	i	0	1
COc1ccc(C(=O)N2CCC(n3nccc3NC(=O)C3CCOC3)CC2)cc1 (stereo not drawn)	-2	-5	2	-5	-10	i	-2	2
CC(=O)Nc1ccc2nc(C3CC3)n(Cc3ccc(Cl)cc3)c(=O)c2c1	-19	.	2	4	6	i	2	-4
CCOC(=O)c1[nH]c2ccccc2c1NC(=O)CC(C)C	-15	-5	-10	4	-2	i	5	1
Cc1cc(CN(C)C(=O)C2CCC(=O)N(CCc3cccc(F)c3)C2)on1 (stereo not drawn)	1	12	-4	2	-7	i	0	3
COC(=O)C1(c2ccccc2)NC(c2cccs2)C2C(=O)N(c3ccccc3)C(=O)C21 (stereo not drawn)	.	-7	7	.	.	i	2	3
Cc1nn(C)c(C)c1CNC(=O)Nc1ccc2c(c1)OCO2	6	-41	-7	?	22	i	-4	1
O=C(NCCCn1ccnc1)c1ccc(C(F)(F)F)cc1	-25	-4	-26	2	-9	i	0	2
CCc1nc2ccccc2c(NC(=O)CN2CCC(C)CC2)c1C	.	-21	-6	3	9	i	1	1
CCc1c(C(=O)Nc2ccc(S(=O)(=O)N3CCOCC3)cc2)csc1C	0	-6	-3	7	-8	i	2	-5
O=C(Nc1cccc(S(=O)(=O)N2CCCCC2)c1)C1CCCN1S(=O)(=O)c1ccccc1F (stereo not drawn)	41	-30	-13	.	.	.	3	-9
CN(C(=O)Nc1ccccc1)C1CCCCC1	-10	0	-4	-7	12	i	1	2
